PrP 5UTR inh: inhibition of PrP 5' UTR reporter expression; cell-based PrP 5' UTR mRNA reporter, plate reader; inhibition, % (concentration not given with the values); hit rate 0.35% among 340,000; AID 488862;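 active means every replicate at 50% or more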;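 further: 0 = median of the neutral control wells; tested in H4 reporter cells; numbers are from one replicate; inactives centre near -14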
BJeLR lethal: BJeLR cell viability loss; BJeLR (HRASV12) viability, CellTiter-Glo ATP luminescence, 48 h; reference of the scale not given here; inhibition, % (concentration not given with the values); hit rate 0.17% among 300,000;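 active means replicate mean above 50%; inconclusive means above 50% but judged a plate artefact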;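 further: 50 nL library stock added to about 25 µL; numbers are from one replicate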
Autofluor counter: counter-screen for toxin protease inhibitors: compound fluorescence. hit rate 3.1% among 360,000. compound autofluorescence counterscreen, microsphere flow cytometry; stronger effect = higher value. AID 624483. fluorescence intensity (test concentration not listed);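 active means at least 3 SD above the mean of all compounds, about 16000 in these data; inconclusive means too few beads counted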;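 further: 100 nL of 1 mM stock went into each well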
Mtb hypoxia inh: Mtb hypoxia fluorescent reporter inhibition; M. tuberculosis hypoxia-regulated fluorescent reporter, fluorescence; fluorescence inhibition, % (no concentration beside the values); hit rate 0.1% among 300,000;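 active means 35 to 45% if threefold the growth effect, above 45% if 1.5-fold the growth effect; inactive means the rest, general growth blockers included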;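 further: wells of about 50 µL received 100 nL stock; 0% = vehicle wells and 100% = reference inhibitor wells; whole bacteria with a GFP reporter of the hypoxia response; strong numbers were not always called active; many hits fall short of the cut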
Sa RN4220 lethal: S. aureus RN4220 growth inhibition. inhibition, % (concentration not given with the values). OD600, 16 h. AID 1259311. hit rate 0.33% among 330,000;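 active means z-score of -3 or lower and OD600 up to 0.18 on both plates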;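 further: plate controls were untreated cells for no effect and reference antibiotic for full effect; stock transfer was 100 nL into about 80 µL; one replicate is shown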
ugtP null kill: kills S. aureus RN4220 lacking UgtP | hit rate 0.54% among 330,000 | growth inhibition, % (no concentration beside the values) | S. aureus RN4220 ugtP deletion, OD600 growth, 16 h; some inactives read as strong as hits | AID 1259309;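 active means z-score under -3 and OD600 up to 0.15 on both plates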;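 further: plate controls were untreated wells for no effect and antibiotic for full effect; wells of about 80 µL received 100 nL stock; the first replicate is given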
Mtb hypoxia inh growth: further read-out of Mtb hypoxia inh, marked with its call; growth inhibition, %; measured here: M. tuberculosis growth (absorbance);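 0% = vehicle and 100% = reference antibiotic; read after six days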
Active calls of the source: *; u = inconclusive; x = no result given.

#1 Cc1cc(C)n2nc(C(=O)OCC(=O)N3CCC3)nc2n1
#2 CCOc1ccc2ccccc2c1C(=O)N1CCOCC1
#3 O=C(NCc1ccc2c(c1)OCO2)C1CCC(CNS(=O)(=O)c2cccc3nsnc23)CC1 (stereo not given)
#4 C=CCc1ccccc1OCC(O)CN1CCN(c2ccc(OC)cc2)CC1 (stereo not given)
#5 O=C1NC(=S)N(C2CC2)C(=O)/C1=C/c1ccc2c(c1)CCN2CCCCl

entry no.,1,2,3,4,5
PrP 5UTR inh,-30,-16,-19,-9,-17
BJeLR lethal,-6,1,1,4,4
Autofluor counter,3380,11432,5712,23665*,3043
Mtb hypoxia inh,2,13,1,5,10
Mtb hypoxia inh growth,2,10,5,6,9
Sa RN4220 lethal,3.0,4.3,4.3,5.4,5.6
ugtP null kill,5,-2,12,-6,2

#6 COc1cc(Nc2ccc(S(=O)(=O)N3CCN(C)CC3)cc2[N+](=O)[O-])cc(OC)c1
#7 CCCCCCSc1nc2c(c(=O)[nH]c(=O)n2C)n1C
#8 COc1ccc(S(=O)(=O)Nc2ccccc2C(F)(F)F)cc1
#9 CN(C)CCCN(C(=O)c1ccc2c(c1)CCCC2)c1nc2ccc(Cl)cc2s1
#10 CCOC(=O)c1ccc(NC(=O)c2nc[nH]c2C(=O)N[C@@H](CCCCNC(=O)OC(C)(C)C)C(=O)OC(C)(C)C)cc1

entry no.,6,7,8,9,10
PrP 5UTR inh,-19,-21,-22,-18,-12
BJeLR lethal,10,-2,6,9,-1
Autofluor counter,u,5355,10886,2136,3884
Mtb hypoxia inh,-5,1,8,38*,x
Mtb hypoxia inh growth,12,12,12,25*,x
Sa RN4220 lethal,1.3,1.7,34,25,x
ugtP null kill,3,-4,-13,-13,x

#11 Cc1nn(Cc2ccccc2)c(C)c1CNC(=O)[C@H](C)N=C1NS(=O)(=O)c2ccccc21
#12 COc1cccc(-c2cc(C(F)(F)F)n3nc(C(=O)Nc4c(C)n(C)n(-c5ccccc5)c4=O)cc3n2)c1
#13 COc1cc(NC(=O)CCCn2c(=O)oc3ccccc32)cc(OC)c1
#14 COc1ccc(NC(=O)c2cc3n(n2)C(C(F)(F)F)CC(c2ccco2)N3)cc1 (stereo not given)
#15 N#CCCN(C(=O)Nc1ccc(Cl)cc1)c1ccccc1

entry no.,11,12,13,14,15
PrP 5UTR inh,-5,-15,-22,-15,-18
BJeLR lethal,x,-11,x,7,5
Autofluor counter,3726,4480,3836,3602,4354
Mtb hypoxia inh,5,11,6,11,x
Mtb hypoxia inh growth,8,2,1,12,x
Sa RN4220 lethal,1.9,14,1.9,-14,0.6
ugtP null kill,6,7,-1,4,-13

#16 CCOC(=O)C1=C(C)N(C)C(=S)NC1c1c(OCC)ccc2ccccc12 (stereo not given)
#17 Cc1ccccc1N1CC(C(=O)Nc2nnc(SCc3ccccn3)s2)CC1=O (stereo not given)
#18 Cc1sc2ncnc(SC(C)C#N)c2c1C (stereo not given)
#19 COc1ccccc1CNC(=O)Cn1nc(C(F)(F)F)cc1C
#20 COc1ccc(N2CCN(C(=O)C3CCCN(S(=O)(=O)c4ccc(C)cc4)C3)CC2)cc1 (stereo not given)

entry no.,16,17,18,19,20
PrP 5UTR inh,47,-20,-28,-13,-16
BJeLR lethal,-8,-9,-6,x,-1
Autofluor counter,3312,6129,8095,6596,5425
Mtb hypoxia inh,13,1,9,2,-17
Mtb hypoxia inh growth,6,2,6,-5,11
Sa RN4220 lethal,15,1.9,7.1,6.9,1.9
ugtP null kill,13,-3,8,12,2

#21 CCOc1ccccc1N(CC(=O)Nc1ccc(S(=O)(=O)N2CCCC2)cc1)S(C)(=O)=O
#22 CCCCN=C1SC(C(=O)Nc2sc3c(c2C(=O)OC)CCC3)C(N)=C1C(=O)N1CCOCC1 (stereo not given)
#23 O=C(CCc1nnc(CCCCc2ccccc2)o1)NCCN1CCCCC1=O
#24 NC(=O)C(c1ccc(Br)cc1)c1ccc(C(=O)c2ccccc2)cc1 (stereo not given)
#25 CCC1Sc2ccc(S(=O)(=O)CCC(=O)Nc3cc(C)ccn3)cc2NC1=O (stereo not given)

entry no.,21,22,23,24,25
PrP 5UTR inh,-1,-14,16,-26,-5
BJeLR lethal,4,2,2,-5,-2
Autofluor counter,6806,4853,4010,4076,5920
Mtb hypoxia inh,2,1,x,-2,13
Mtb hypoxia inh growth,12,0,x,1,1
Sa RN4220 lethal,1.3,-1.0,x,-4.2,5.6
ugtP null kill,-2,-3,x,4,17

#26 O=C1CC2(CCCCCC2)Oc2ccc(Cl)cc21
#27 COc1ccc(CCNC(=O)c2ccc(N3CCCCS3(=O)=O)cc2)cc1OC
#28 CC1=Nn2c(nnc2-c2n[nH]c3c2CCC3)SC1
#29 O=C1COc2ccc(C(=O)COC(=O)CCSc3ccc(Cl)cc3)cc2N1
#30 Cc1cccc(C)c1NC(=S)NC(C)CCc1ccccc1 (stereo not given)

entry no.,26,27,28,29,30
PrP 5UTR inh,-49,-11,-24,-25,0
BJeLR lethal,-12,-3,9,-3,17
Autofluor counter,4108,4367,3497,4702,6617
Mtb hypoxia inh,16,-2,x,7,-8
Mtb hypoxia inh growth,17,-2,x,1,2
Sa RN4220 lethal,-2.8,3.6,-2.6,4.8,-0.4
ugtP null kill,0,6,5,1,4

#31 COc1ccc(C=CC(=O)c2ccc([N+](=O)[O-])o2)cc1
#32 CC(C)N(C(C)C)S(=O)(=O)c1ccc(NN)nc1
#33 COc1cc(CC(NC(C)=O)C(=O)NC2CCN(c3nc(OC)nc(OC)n3)CC2)cc(OC)c1 (stereo not given)
#34 CC(=O)Nc1ccc(C=NN2C(=O)NC(C)(c3ccc(OC(F)F)cc3)C2=O)cc1 (stereo not given)
#35 CCOC(=O)C1CCN(c2c(NCCCN3CCN(Cc4ccccc4)CC3)c(=O)c2=O)CC1

entry no.,31,32,33,34,35
PrP 5UTR inh,x,-10,-11,x,-4
BJeLR lethal,x,6,-5,x,-7
Autofluor counter,x,3445,4422,x,11455
Mtb hypoxia inh,x,-6,-12,5,6
Mtb hypoxia inh growth,x,-12,2,-1,4
Sa RN4220 lethal,18,4.4,5.7,4.4,1.6
ugtP null kill,93*,-6,0,1,6

#36 CCCCNC(=O)c1ccc2c(c1)ncn2C1CCCC1
#37 COc1ccccc1OCCCN1C(=O)C(=O)c2cccc(C)c21
#38 COc1ccc(CCNC(=O)C(=O)NCC2OCCN2S(=O)(=O)c2ccc(Cl)cc2)cc1 (stereo not given)
#39 Cc1cnc(CNC(=O)C2CCC(=O)N(Cc3ccc(Cl)cc3)C2)[nH]1 (stereo not given)
#40 COc1ccccc1CNC(=O)C1CCN(S(=O)(=O)c2cccc([N+](=O)[O-])c2)CC1

entry no.,36,37,38,39,40
PrP 5UTR inh,-10,-8,-27,-28,0
BJeLR lethal,13,7,-17,5,-7
Autofluor counter,9748,4415,6089,5310,3960
Mtb hypoxia inh,-2,13,9,-4,12
Mtb hypoxia inh growth,3,-2,7,2,5
Sa RN4220 lethal,-7.3,9.7,-15,-2.4,3.3
ugtP null kill,-9,4,-4,0,4

#41 CN1CCN(C(=O)/C=C\c2ccc(Cl)cc2)CC1
#42 CCC(C)NC(=O)c1oc2ccc(S(=O)(=O)N3CCC4(CC3)OCCO4)cc2c1C (stereo not given)
#43 N#Cc1c(NC(=O)CN2C(=O)c3ccccc3C2=O)oc(-c2ccccc2)c1-c1ccccc1
#44 Cc1ccc(S(=O)(=O)Nc2ccc3c(c2)nc2n3CCN(Cc3ccccc3)C2)cc1
#45 O=C(CSc1ncnc2nc[nH]c12)Nc1ccc(Br)cc1Cl

entry no.,41,42,43,44,45
PrP 5UTR inh,-31,-23,-41,-6,-17
BJeLR lethal,-7,6,1,6,1
Autofluor counter,3196,3721,11508,18646*,5288
Mtb hypoxia inh,2,9,12,6,9
Mtb hypoxia inh growth,4,3,9,6,5
Sa RN4220 lethal,-1.2,2.6,4.9,6.9,6.1
ugtP null kill,1,18,5,3,-1

#46 COc1ccc(CCNc2nc(C)cc(C)n2)cc1OC
#47 Cc1[nH]c2ccccc2c1Cc1nnc(SCc2ccccc2)o1
#48 CCCNC(=S)Nc1ccc(Oc2ccccc2)cc1
#49 Cc1cccc(NC(=O)CSc2nnc(-c3ccco3)o2)c1C
#50 Cc1ccc(C)c(CSC2=NCCN2C(=O)c2cccs2)c1

entry no.,46,47,48,49,50
PrP 5UTR inh,-19,-26,-13,2,-13
BJeLR lethal,3,5,-4,-7,7
Autofluor counter,3426,5577,20489*,3055,3725
Mtb hypoxia inh,1,x,10,16,-3
Mtb hypoxia inh growth,2,x,13,15,21
Sa RN4220 lethal,2.6,3.8,-1.2,5.8,7.8
ugtP null kill,7,-3,-1,11,1

#51 O=[N+]([O-])c1cc(-c2ccc(C=Nn3cnnc3)o2)cc([N+](=O)[O-])c1
#52 CCN(CC)S(=O)(=O)c1cc(C(=O)Nc2cc(C)[nH]n2)ccc1Cl
#53 CCC(=C(c1ccc(OC)cc1)c1ccc(OC)cc1)c1cn(CC(O)CN(CCO)CCO)c2ccccc12 (stereo not given)
#54 COc1ccccc1CCNC(=O)C(=O)Nc1cc2c3c(c1)CC(=O)N3CCC2
#55 N#CCCn1cc(C(=O)Nc2ccc(C(=O)O)cc2)c(-c2cccc(Br)c2)n1

entry no.,51,52,53,54,55
PrP 5UTR inh,x,-16,-15,-29,-14
BJeLR lethal,x,-6,x,1,-5
Autofluor counter,x,4191,4172,4015,4236
Mtb hypoxia inh,43*,-8,4,-2,11
Mtb hypoxia inh growth,28*,11,9,-3,2
Sa RN4220 lethal,5.6,0.7,3.1,2.2,2.7
ugtP null kill,9,-1,14,5,8

#56 Cc1cc(NC(=O)CCC(=O)N(Cc2ccccc2)C2(C(=O)NC3CCCCC3)CCCC2)no1
#57 CC(=O)N1CCN(C(=O)COC(=O)c2oc3ccccc3c2C)CC1
#58 CC(=O)Nc1ccc(S(=O)(=O)Nc2ccc(Cc3ccncc3)cc2)cc1
#59 CC(=O)Nc1ccc(S(=O)(=O)N(C)CC(=O)NN=Cc2ccc(C(=O)O)cc2)cc1
#60 Cc1ccc(C(=O)Nc2cccc(C(F)(F)F)c2)cc1Nc1cnccn1

entry no.,56,57,58,59,60
PrP 5UTR inh,-20,-2,-28,x,-10
BJeLR lethal,0,x,-2,x,-2
Autofluor counter,2259,x,3622,x,3193
Mtb hypoxia inh,1,6,0,0,4
Mtb hypoxia inh growth,12,2,-1,9,1
Sa RN4220 lethal,2.6,5.8,-0.8,3.6,-2.9
ugtP null kill,-4,5,1,7,7

#61 O=C(c1ccco1)N1CCN(C(c2ccc(F)cc2)c2nnnn2Cc2cccs2)CC1 (stereo not given)
#62 CCC(CC)COC(=O)C1=C(C)NC(=O)NC1c1ccc(N(C)C)cc1 (stereo not given)
#63 Nc1nnnn1N=Cc1ccccn1
#64 Cc1ccc(C(=O)N2CCC(N3CCC(C(=O)N4CCOCC4)CC3)CC2)cc1C
#65 COc1cc2c(cc1NC(=O)CSc1ccc(C)cc1)oc1ccccc12
#66 CC(=O)c1cccc(OCC(O)CNCC2COc3ccccc3O2)c1 (stereo not given)

entry no.,61,62,63,64,65,66
PrP 5UTR inh,-42,-18,x,-10,-41,5
BJeLR lethal,-1,-12,x,2,3,-12
Autofluor counter,4303,2866,x,7189,11700,3059
Mtb hypoxia inh,x,10,2,13,-2,6
Mtb hypoxia inh growth,x,5,-1,6,3,3
Sa RN4220 lethal,1.1,5.0,2.2,3.1,4.1,0.7
ugtP null kill,1,-1,0,3,-9,-1

High-throughput results deposited in PubChem BioAssay by several laboratories.
